Bioassay records (PubChem BioAssay)
TRPV1 PAM – potentiators of human vanilloid receptor 1 (TRPV1); Q8NER1; TRPV1-expressing cells, Fluo-8 calcium influx, capsaicin EC20 potentiation; host cell line not named in the record; control for the full effect not named in the record; potentiation, % at 8.33 µM; 320,000 tested, 0.02% active; AID 540277; active means potentiation above 80%; inconclusive means 30% to 80%; inactive means below 30%; also: 0% is about no effect
Target sequence (Q8NER1 whole entry, looked up): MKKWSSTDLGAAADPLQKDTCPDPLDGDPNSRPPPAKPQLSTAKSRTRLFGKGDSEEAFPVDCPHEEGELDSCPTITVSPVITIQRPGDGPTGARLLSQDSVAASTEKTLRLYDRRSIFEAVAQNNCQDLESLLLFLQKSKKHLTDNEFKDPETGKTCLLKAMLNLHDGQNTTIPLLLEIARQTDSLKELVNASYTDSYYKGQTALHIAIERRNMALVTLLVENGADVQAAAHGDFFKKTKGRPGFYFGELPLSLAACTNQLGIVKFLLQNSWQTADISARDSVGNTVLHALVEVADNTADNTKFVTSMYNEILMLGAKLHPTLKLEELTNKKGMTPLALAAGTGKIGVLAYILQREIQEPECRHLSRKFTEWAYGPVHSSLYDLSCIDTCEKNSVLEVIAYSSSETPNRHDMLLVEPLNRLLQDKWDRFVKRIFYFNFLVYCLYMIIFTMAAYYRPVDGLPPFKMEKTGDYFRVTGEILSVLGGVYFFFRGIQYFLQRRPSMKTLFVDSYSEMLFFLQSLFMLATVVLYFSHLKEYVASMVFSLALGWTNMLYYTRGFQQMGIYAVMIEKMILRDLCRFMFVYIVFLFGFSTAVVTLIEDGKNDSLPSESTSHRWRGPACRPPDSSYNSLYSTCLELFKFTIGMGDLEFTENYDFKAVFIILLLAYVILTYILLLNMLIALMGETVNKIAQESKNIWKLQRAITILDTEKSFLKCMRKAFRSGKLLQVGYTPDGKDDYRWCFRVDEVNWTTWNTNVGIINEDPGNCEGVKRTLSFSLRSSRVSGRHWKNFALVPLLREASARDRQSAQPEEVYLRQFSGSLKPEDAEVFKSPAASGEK
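Cells expressing TRPV1 were dye-loaded with Fluo-8 and read kinetically: 10 s baseline, 3 min after compound (agonist portion), then 2 min after EC20 capsaicin (allosteric enhancer portion). Calcium-bound dye fluorescence at 480/520 nm.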
Six1-Eya2 inh – Six1/Eya2 interaction inhibition; Q15475+O00167; AlphaScreen GST-Six1/His-Eya2 binding, biochemical; hits give low values; control for the full effect not named in the record; activity change, % (concentration not given with the values); 360,000 tested, 0.56% active; AID 651725; in the data active = activity change below about -65%; inconclusive = about -30% to -65%; inactive = above about -30%; also: % is scaled to controls: 0 for no effect and ±100 for the full control effect
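GST-Six1 + His-Eya2 (5X stock: 250/500 nM); Tris pH 8.0, 300 mM NaCl, 0.05% BSA, 0.02% Tween 20; GSH donor/Ni acceptor beads; 1 h 37 °C dark; AlphaScreen readout.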
D2 ag – activates the human D2 dopamine receptor | P14416 | DiscoveRx PathHunter D2 beta-arrestin, luminescence, 90 min; 100% = 57 uM dopamine signal | activation, % (test concentration not listed) | 360,000 tested, 0.084% active | AID 624465; in the data active = activation above about 40%; inconclusive = about 15% to 40%; inactive = below about 15%; also: compound concentration not given in the record; the text of the record calls up to 30% inactive
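Agonist mode: compounds alone added to overnight-plated D2 PathHunter cells for 90 min at 37 C, with 57 uM final dopamine (EC100) defining full response. Beta-arrestin recruitment detected by chemiluminescent reagent, read after 1 h at ambient temperature.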
PINK1 expr mod – changes PINK1 expression; PINK1 immunofluorescence, high-content cytometry, 24 h; Potency, µM (highest dose often 76.6 µM), for inactives: top-dose activation (PINK1 increase), most hits filed as activators; 410,000 tested, 0.2% active; AID 624263; active = well fitted activation curve with a large enough effect; inconclusive = small, poorly fitted or top-dose-only effect; inactive = flat fitted curve, though single readings scatter; cell line not stated here;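 also: potency is read from the fitted curve at half-maximal effect; % of control where 0% means no effect; nearly all actives have a fitted effect of over 65% in size; a mitochondrial uncoupler was the plate control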
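Compound titrations (5 concentrations, 24 h) on a stable cell line; DMSO and CCCP controls. Endpoint: fixed-cell PINK1 immunofluorescence with mitochondrial, cell and nuclear markers, scanned by microplate cytometer.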
Sfp inh – inhibitors of Bacillus subtilis Sfp phosphopantetheinyl transferase | Biochemical Sfp PPTase activity, qHTS | Potency, µM, inactives show max response, negative = inhibition, most hits filed as inhibitors | Q9F4F7 | AID 1490 | 310,000 tested, 3.5% active; active = well fitted inhibition curve with a large enough effect; inconclusive = small, poorly fitted or top-dose-only effect, or another doubt; inactive = no such curve, though single readings can be large or run the other way;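 also: the enzyme is Sfp with the accession as filed and its product quenches rhodamine fluorescence; potency is read from the fitted curve at half-maximal effect; 0% = enzyme reaction without inhibitor and -100% = no enzyme wells; top concentration of the series not given in the record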
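With Hepes-Na pH 7.6 buffer containing 10 mM MgCl2, Sfp (15 nM) modified BHQ-2-YbbR (12.5 uM) using rhodamine-CoA (5 uM). Two reads 30 minutes apart at 525/598 nm yielded each well's rate.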
CtBP-E1A blk – CtBP/E1A binding inhibition; 340,000 tested, 0.49% active; AlphaScreen GST-E1A/His-CtBP binding, 1536-well; hits give low values; control for the full effect not named in the record; activity change, % (concentration not given with the values); in the data active means activity change below about -65%; inconclusive means about -30% to -65%; inactive means above about -30%; also: % is scaled to controls: 0 for no effect and ±100 for the full control effect
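Steps: dispense buffer (Tris pH 8.0, NaCl 300 mM, TCEP 1 mM, BSA, Tween 20); add 5X protein mix (GST-E1A, His-CtBP, 125 nM each); pin 23 nL compound; 2 h at 37 °C, dark; add 5X beads (50 ug/mL); 1 h; read.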
D2 potentiator – human D2 receptor positive allosteric modulation | DiscoveRx D2 beta-arrestin cells, luminescence, 90 min; 100% = 57 uM dopamine signal | potentiation, % (concentration not given with the values) | 360,000 tested, 0.23% active; active = potentiation of 50% or more; inconclusive = 30% to 50%; inactive = 30% or less;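 also: compound concentration not given in the record; tested on top of an EC20 dose of dopamine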
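D2 cells co-treated with compound plus 50 nM dopamine (EC20) for 90 min at 37 deg C to detect potentiation. Beta-arrestin recruitment was read as enzyme-fragment luminescence after 1 h at ambient temperature. Full response was set by 57 uM dopamine.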
Starred values were filed as active, the others as inactive; u = inconclusive; x = not tested or not shown; & = joins results of further samples; [ ] = remark or other dose.

1: O=C(Nc1cccc(S(=O)(=O)NC2=NCCC2)c1)c1ccc(F)cc1F
2: CCCCn1c(N)c(N(CC)C(=O)c2c(C)noc2C)c(=O)[nH]c1=O
3: CC1=C(C(N)=O)C(c2ccncc2)n2nc(-c3ccccc3Cl)nc2N1 (stereo unspecified)
4: C=CC[C@@H](CC(=O)NCCO)C(=O)N[C@@H](C)COC(=O)[C@@H](CC=C)Cc1ccc(F)cc1
5: Cc1cccc(C)c1NC(=O)COC(=O)C1C2CC3OC(=O)C1C3C2 (stereo unspecified)
6: CCC(CO)Oc1cc(NCc2cccc(Cl)c2)c2ncn(C(C)C)c2c1 (stereo unspecified)
entry no.	1	2	3	4	5	6
TRPV1 PAM	x	x	3	x	-1	x
Six1-Eya2 inh	-8	-6	-13	1	2	-15
D2 ag	-2.9	-4.7	10	-3.1	-3.9	7.6
PINK1 expr mod	-0.5%	-1.6%	-0.3%	0.1%	1.1%	13%
Sfp inh	x	x	6%	x	6%	x
CtBP-E1A blk	2	-6	11	3	-5	u
D2 potentiator	-6	-4	-1	-2	-16	-5

7: CN(CC(=O)Nc1ccc(N2CCOCC2)cc1)C(=O)CC(c1ccccc1)c1ccccc1
8: CN1CCN(c2ccc(Nc3ccnc4cc(Cl)ccc34)cc2)CC1
9: CSC1=NC(NCCCO)c2c(sc3c2CC(C)(C)OC3)N1 (stereo unspecified)
10: Cc1nnc(NC(=O)c2ccncc2)s1
11: O=[N+]([O-])c1cccc(-c2n[nH]c(=S)n2-c2ccccc2)c1
12: O=C(Cc1ccc(Cl)cc1)NCc1ccccc1Cl
entry no.	7	8	9	10	11	12
TRPV1 PAM	19	-15	-19	8	12	-4
Six1-Eya2 inh	0	-27	14	-5	-5	-23
D2 ag	-1.8	-0.7	-3.2	-1.1	-3.3	-7.4
PINK1 expr mod	-0.8%	-2.2%	3.4%	0.6%	-0.8%	5.4%
Sfp inh	15%	3%	-20%	11%	-10%	-4%
CtBP-E1A blk	0	0	0	0	-27	0
D2 potentiator	-7	-4	4	-6	-10	-10

13: COc1cc2c(cc1OC)C1C(C(=O)Nc3ccccc3N3CCN(C)CC3)c3ccccc3C(=O)N1CC2 (stereo unspecified)
14: CCCCNc1c(-c2cccc(OC)c2)nc2nc(C)cc(C)n12
15: CCOc1ccccc1-n1c(N)c(C(N)=O)sc1=S
16: Cc1cccc(NC(=O)c2ccc3nsnc3c2)c1C
17: O=C(NNc1nc(Nc2ccccc2)nc(N2CCOCC2)n1)Nc1ccc(Cl)cc1
18: CC1CCCCC1NC(=O)CN1CCN(S(=O)(=O)c2ccc(Br)s2)CC1 (stereo unspecified)
entry no.	13	14	15	16	17	18
TRPV1 PAM	11	x	-1	-2	-2	4
Six1-Eya2 inh	-2	-8	-2	8	4	5
D2 ag	-4.6	x	-5.0	-1.0	-0.7	0.6
PINK1 expr mod	1.8%	-0.6%	27%[38.3 µM]	0.8%	1.1%	-1.7%
Sfp inh	13%	x	-18%	14%	37%[activator]	x
CtBP-E1A blk	x	5	-1	-3	-14	-6
D2 potentiator	-16	x	10	-13	-3	-3

19: COc1ccc(C(=O)NCCCN(C)CCCNC(=O)c2ccc(OC)cc2)cc1
20: C=CCn1c(O)c2ccc(C(=O)N=NC(=O)c3ccc(F)cc3)cc2c1O
21: COc1ccc(-c2ccc3c(c2)S(=O)(=O)c2cccc(C(=O)NC4CC4)c2C3=O)cc1OC
22: CC1CCCC(C)N1C(=O)COC(=O)c1ccc([N+](=O)[O-])o1 (stereo unspecified)
23: N#CCCn1cc(CNC2CCC(O)CC2)c2ccccc21 (stereo unspecified)
24: Cc1ccc2nc(SCC(=O)N3CCCCC3)nc(=O)n2c1
entry no.	19	20	21	22	23	24
TRPV1 PAM	-2	u	10	x	22	7
Six1-Eya2 inh	0	4	-4	-4	0	-7
D2 ag	-4.5	-4.8	-6.2	6.5	-1.8	-4.1
PINK1 expr mod	-1.4%	4.1%	u	1.2%	1.5%	-0.2%
Sfp inh	-5%	x	x	x	19%	x
CtBP-E1A blk	-11	0	-5	0	-3	11
D2 potentiator	-4	1	5	7	-2	2

25: COc1cc(O)c(C(CC(=O)N2CCOCC2)c2ccc(N(C)C)cc2)c(OC)c1 (stereo unspecified)
26: Cc1ccc(C(=O)NCCc2ccccc2)cc1S(=O)(=O)N1CCOCC1
27: CCC(C)(C)C1CCC2(CC1)NC(=O)N(CC(=O)N1CCN(S(=O)(=O)c3cc(C)ccc3C)CC1)C2=O (stereo unspecified)
28: CCOC(=O)Cc1ccc(Nc2nc(NCc3ccccc3)nc3ccsc23)cc1
29: Cc1ccc(-c2ccc(/C=N/N=C3/NC(=O)C(CC(=O)O)S3)o2)c([N+](=O)[O-])c1 (stereo unspecified)
30: COC(=O)c1sccc1NC(=O)NC1CCCCC1
entry no.	25	26	27	28	29	30
TRPV1 PAM	-21	-26	-4	x	6	-9
Six1-Eya2 inh	-11	-1	3	2	-2	-1
D2 ag	-1.6	3.1	-0.3	3.6	-4.5	-1.6
PINK1 expr mod	-0.6%	2.1%	-3.3%	1.2%	0.5%	7.6%
Sfp inh	8%&-3%	x	20%	x	20µM*	18%
CtBP-E1A blk	-9	0	4	-15	-3	x
D2 potentiator	-5	1	-13	-10	-16	-8

31: O=C(c1ccccc1)C1(c2ccccc2)OC1c1ccccc1 (stereo unspecified)
32: Cc1nc2cc(Cl)c(Cl)cc2n1CCCO
33: CC(=O)N(Cc1ccc2c(c1)OCO2)C1CC(=O)N(CCc2ccccc2)C1=O (stereo unspecified)
34: CCC/C=C/c1ccc(CN2C(C)C(=O)N(Cc3cn(CCOCOC)nn3)CCS2(=O)=O)cc1 (stereo unspecified)
35: CCc1ccc(-c2ccc(C(=O)O)cc2)nc1
36: COCC(C)NC(=O)c1cc(-c2ccc(OC)c(OC)c2)on1 (stereo unspecified)
entry no.	31	32	33	34	35	36
TRPV1 PAM	x	-4	-8	x	-14	6
Six1-Eya2 inh	10	16	2	0	2	0
D2 ag	-3.1	-6.4	-3.1	-8.3	-0.6	-1.6
PINK1 expr mod	u	0.7%	-1.9%	3.7%	-2.7%	0.0%[38.3 µM]
Sfp inh	x	13%	0%	x	9%	5%
CtBP-E1A blk	12	0	8	-10	-3	-8
D2 potentiator	1	-2	3	-2	-2	3

37: COc1cc(/C=N/Nc2nn3cnnc3c3ccccc23)cc(OC)c1OC
38: O=[N+]([O-])c1ccc(Cl)c(/C=N/N2CCN(c3ccccc3)CC2)c1
39: Cc1cc(C(F)F)n2ncc(C(=O)NCc3ccccc3F)c2n1
40: COc1ccccc1NC(=O)Oc1cccc(OC(=O)c2ccccc2)c1
41: COc1ccc(-n2ccnc2SCC(=O)NC2CCCC2)cc1
42: CCCc1ccccc1OCCNS(=O)(=O)c1cc2c(cc1C)OCC(=O)N2
entry no.	37	38	39	40	41	42
TRPV1 PAM	17	10	0	17	1	1
Six1-Eya2 inh	u	u	0	-2	-1	-24
D2 ag	-2.0	-1.3	-2.2	0.3	0.1	3.1
PINK1 expr mod	1.2%	1.6%[38.3 µM]	4.0%	0.8%	2.3%	3.3%
Sfp inh	-25%	1%	8%	7%	x	3%
CtBP-E1A blk	u	-21	0	x	2	0
D2 potentiator	2	-20	-10	-10	-2	5

43: COCCNC(=O)C(c1ccc(O)cc1)N(C(=O)CCC(=O)Nc1nccs1)c1cccc(C)c1 (stereo unspecified)
44: Cc1ccc(/C=N/NC(=O)c2nnn(-c3nonc3N)c2CN(C)c2ccccc2)s1
45: CCC(C)(C)NC(=O)CN(C(=O)CCC(=O)Nc1cc(C)ccn1)c1ccc2c(c1)OCO2
46: Cc1ccccc1CSc1nn2c(=O)c(C)nnc2s1
47: O=C(O)c1ccn[nH]1
48: CCOC(=O)c1ccc2[nH]c(C)c(CN3CCN(C)CC3)c(=O)c2c1
entry no.	43	44	45	46	47	48
TRPV1 PAM	-17	6	-5	20	x	x
Six1-Eya2 inh	4	-4	7	10	5	-1
D2 ag	-1.1	-3.1	-0.1	-5.9	-4.4	-0.4
PINK1 expr mod	-1.0%	0.8%	0.6%	0.5%	-0.6%	-1.2%
Sfp inh	14%	11%	5%	-12%	x	x
CtBP-E1A blk	4	-4	0	-2	9	7
D2 potentiator	-7	9	-3	-8	-23	-6

Overlap with the part before: 3 entries, followed by the next part.
46: Cc1ccccc1CSc1nn2c(=O)c(C)nnc2s1
47: O=C(O)c1ccn[nH]1
48: CCOC(=O)c1ccc2[nH]c(C)c(CN3CCN(C)CC3)c(=O)c2c1
49: Cc1cccc(CCNC(=O)C2CCN(S(=O)(=O)c3c(C)noc3C)CC2)c1
50: Cc1ccc(CC(=O)Nc2cc([N+](=O)[O-])ccc2F)cc1
51: Cc1cc(NS(=O)(=O)c2ccc(NC(=O)CN3C(=O)c4ccccc4C3=O)cc2)nc(C)n1
52: C[C@H](NC(=O)c1cc2c(cn1)[nH]c1ccccc12)C(=O)O
53: Cc1cccc(/C(N)=N/OC(=O)N2c3ccccc3Sc3ccccc32)c1
entry no.	46	47	48	49	50	51	52	53
TRPV1 PAM	20	x	x	21	15	6	-15	20
Six1-Eya2 inh	10	5	-1	5	-3	-4	6	-20
D2 ag	-5.9	-4.4	-0.4	-1.2	-4.0	-2.3	0.6	u
PINK1 expr mod	0.5%	-0.6%	-1.2%	3.1%[38.3 µM]	0.1%	1.4%[38.3 µM]	2.6%	-1.6%
Sfp inh	-12%	x	x	13%	7%	13%	8.9µM*	-1%
CtBP-E1A blk	-2	9	7	6	-7	-10	-7	-9
D2 potentiator	-8	-23	-6	0	-2	-5	4	51*
